Source: PubChem BioAssay
Arbovirus anti: antivirals against arbovirus infection; arbovirus infection cell-based antiviral screen; inhibition, % at 10 µM; actives 0.37% (n = 200,000);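 active means inhibition from about 30%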;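 further: bluetongue infection of BSR cells; cell survival read as ATP light after 72 h; 0% = infected wells without compound and 100% = uninfected wells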
YopH PTP inh: inhibitors of Yersinia enterocolitica YopH tyrosine phosphatase; fluorescence Ex485/Em525; inhibition, %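 (about 10 µM by stock and volumes)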; actives 0.16% (n = 140,000);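 active means inhibition of 50% or more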;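 further: controls were vehicle for no effect and minimum signal wells for full effect; inactives centre near -20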
Mtb growth: M. tuberculosis H37Rv growth inhibitors, H37Rv strain (AID 1626). actives 0.95% (n = 220,000). one-dose inhibition, % at 10 µM; IC50 in µM for titrated hits. M. tuberculosis H37Rv growth inhibition; higher % means a stronger effect;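 active means confirmed in a dose series; inconclusive means inhibition above 80% but not taken into the dose series; inactive means below 80% or under 30% at every dose of the series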;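 further: bacteria incubated seven days before Alamar blue readout; 0% = bacteria only wells and 100% = bacteria with antibiotic wells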
Mtb betalactam: beta-lactam sensitization of Mtb H37Rv; M. tuberculosis H37Rv growth with meropenem, percent inhibition; hits of this screen are not shown here; inhibition, % at 25 µM; actives 0.27% (n = 330,000); AID 434955;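 active means about 74% or more and at least 40 points above the plate without the antibiotic, then above 30% in a dose series; inconclusive means first-round hits that could not be retested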;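 further: growth measured after seven days incubation then overnight dye step; 0% = bacteria only wells and 100% = bacteria with antibiotic; twin plates without the antibiotic show which effects depend on it; some results filed as inactive read as strong as hits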
RecA intein inh: inhibitors of M. tuberculosis RecA intein splicing. P9WHJ3. AID 2221. actives 0.75% (n = 290,000). cell-free RecA intein splicing, fluorescence. inhibition, %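 (about 9 µM by stock and volumes)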; in the data active means inhibition above about 30%; inconclusive means no clear call, values can overlap the other calls;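 further: 0% = vehicle wells and 100% = reference inhibitor control wells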
Target sequence (P9WHJ3 whole entry, looked up): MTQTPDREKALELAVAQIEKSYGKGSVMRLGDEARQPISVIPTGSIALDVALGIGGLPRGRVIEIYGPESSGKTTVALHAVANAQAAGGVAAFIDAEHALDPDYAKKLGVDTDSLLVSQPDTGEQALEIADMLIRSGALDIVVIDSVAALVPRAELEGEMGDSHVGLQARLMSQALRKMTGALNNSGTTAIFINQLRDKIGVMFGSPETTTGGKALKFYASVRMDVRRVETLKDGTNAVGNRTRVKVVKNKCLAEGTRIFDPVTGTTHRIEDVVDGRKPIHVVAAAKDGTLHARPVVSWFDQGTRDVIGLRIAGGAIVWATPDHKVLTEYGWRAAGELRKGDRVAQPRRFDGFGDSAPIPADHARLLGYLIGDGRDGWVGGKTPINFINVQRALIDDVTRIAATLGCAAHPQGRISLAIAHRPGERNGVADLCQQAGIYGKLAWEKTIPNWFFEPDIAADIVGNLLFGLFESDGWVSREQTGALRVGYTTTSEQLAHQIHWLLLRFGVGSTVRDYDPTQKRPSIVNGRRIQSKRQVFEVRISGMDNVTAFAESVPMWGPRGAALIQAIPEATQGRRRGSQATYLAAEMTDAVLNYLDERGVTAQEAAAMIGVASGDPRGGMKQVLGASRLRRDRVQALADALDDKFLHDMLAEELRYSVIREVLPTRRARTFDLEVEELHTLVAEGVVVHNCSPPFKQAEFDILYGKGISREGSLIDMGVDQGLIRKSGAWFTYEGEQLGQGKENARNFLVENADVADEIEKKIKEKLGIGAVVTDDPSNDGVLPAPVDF
Arbovirus anti repeat: second read-out of Arbovirus anti, no call of its own (marks repeat the call); inhibition, %; measured here: 10K subset replicate screen; many hits read low in the repeat;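 first of two repeat runs on a subset; 0% = infected and 100% = uninfected wells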
* marks the source's active call; other numbers are inactive results; i = inactive; u = inconclusive; x = no result given. Not all compounds are listed; the hit share may differ from the screen's.

SMILES | Arbovirus anti | YopH PTP inh | Mtb growth | Mtb betalactam | RecA intein inh | others
CCn1c(CSCc2c(Cl)cccc2Cl)n[nH]c1=S | 11 | x | 5% | -2 | -2.5
COc1ccc(-c2nc(NC(=O)Cn3ccc(C(F)(F)F)n3)sc2C)cc1 | -15 | -58 | 2% | 100 | 5.9
CCOC(=O)c1sc(=NC(=O)c2cccc(OC)c2)n(C)c1C | 3 | -29 | 4% | -3 | 1.8
CCCCn1nc(NC(=O)COC)c2cc3cc(OC)ccc3nc21 | x | x | x | 8 | -300
OCCCc1cn(Cc2ccccc2)c2ccccc12 | x | x | x | 2 | 3.3
COc1cccc(C(=O)Nc2cccnc2)c1 | 10 | -9 | x | 0 | -7.2
COC(CNc1cc(=O)oc2ccccc12)OC | -3 | 6 | 4% | -14 | x
CC(=O)Nc1ccccc1C(=O)N1CCN(Cc2ccccc2)CC1 | 18 | x | x | -4 | -0.1
CCCCn1c(N)c(N(CC(C)C)C(=O)C2=NN(c3cc(C)ccc3C)C(=O)CC2)c(=O)[nH]c1=O | x | x | x | -10 | 0.5
O=C(CCN1C(=O)c2ccccc2S1(=O)=O)NCc1ccccc1 | x | x | x | 5 | -1.2
CCOc1nc2cnccc2n(CC(=O)Nc2ccc(C)c(C)c2)c1=O | x | x | x | -4 | -4.3
O=c1nc(N/N=C/c2c[nH]c3ccccc23)cn[nH]1 | x | x | 4% | 49 | x
Cc1ccc(NC(=O)c2noc(C(C)C)c2[N+](=O)[O-])cc1 | -1 | x | -2% | -3 | 1.1
Cc1ccccc1C(=O)c1cn[nH]c1-c1ccccc1O | x | x | x | -7 | 1.6
COc1ccc(CCNC(=O)c2cc3sc(Cl)cc3n2C)cc1OC | -10 | -43 | 78% | 39 | 6.9 | Arbovirus anti repeat=9
COc1ccc(NC(=O)COc2ccccc2C)cc1S(=O)(=O)N1CCCCC1 | x | x | x | -3 | 4.9
CN(CC(=O)Nc1ccccc1Cl)C(=O)COC(=O)C1CC1 | x | x | x | 8 | 0.4
N#CCSc1nnc(-c2c[nH]c3ccccc23)o1 | x | x | x | 3 | 0.9
COC(=O)Cn1nnc(-c2cccc(OC)c2)n1 | -2 | 2 | -6% | 1 | x
C#CCOCCOCCOCCNc1nc(N2CCN(C(=O)[C@H](Cc3ccc(O)cc3)n3cc([C@@H](N)C(C)CC)nn3)CC2)nc(N2CCN(C(=O)[C@H](Cc3cc4ccccc4[nH]3)n3cc([C@@H](N)CC(C)C)nn3)CC2)n1 (stereo not given in full) | -10 | x | 7.4µM* | 83 | -1.1
CCc1ccc(NC(=O)c2ccc(NC(=O)C3CCCO3)cc2)cc1 (stereo not given) | x | x | x | 56 | 0.9
CC(=O)NS(=O)(=O)c1ccc(NC(=S)NC(=O)COc2ccccc2C)cc1 | -5 | -4 | -1% | 1 | 0.3
Cc1ccc(C(=O)NCc2cccnc2)cc1S(=O)(=O)N1CCCCCC1 | x | x | x | -15 | -0.4
O=C1C(c2ccnc3ccccc23)=C(O)c2ccccc21 | -18 | -20 | 1% | 60 | -1.1
CC(C)Cc1nnc(NC(=O)C2CC(=O)N(Cc3ccccc3)C2)s1 (stereo not given) | x | x | x | -10 | 0.5

Two compounds drawn at random from those above, as already listed:
SMILES | Arbovirus anti | YopH PTP inh | Mtb growth | Mtb betalactam | RecA intein inh | others
CC(C)Cc1nnc(NC(=O)C2CC(=O)N(Cc3ccccc3)C2)s1 (stereo not given) | x | x | x | -10 | 0.5
CC(=O)NS(=O)(=O)c1ccc(NC(=S)NC(=O)COc2ccccc2C)cc1 | -5 | -4 | -1% | 1 | 0.3

For reference, some entries already given.
SMILES | Arbovirus anti | YopH PTP inh | Mtb growth | Mtb betalactam | RecA intein inh | others
CCn1c(CSCc2c(Cl)cccc2Cl)n[nH]c1=S | 11 | x | 5% | -2 | -2.5
COc1ccc(-c2nc(NC(=O)Cn3ccc(C(F)(F)F)n3)sc2C)cc1 | -15 | -58 | 2% | 100 | 5.9
CCOC(=O)c1sc(=NC(=O)c2cccc(OC)c2)n(C)c1C | 3 | -29 | 4% | -3 | 1.8
CCCCn1nc(NC(=O)COC)c2cc3cc(OC)ccc3nc21 | x | x | x | 8 | -300
OCCCc1cn(Cc2ccccc2)c2ccccc12 | x | x | x | 2 | 3.3
COc1cccc(C(=O)Nc2cccnc2)c1 | 10 | -9 | x | 0 | -7.2
COC(CNc1cc(=O)oc2ccccc12)OC | -3 | 6 | 4% | -14 | x
CC(=O)Nc1ccccc1C(=O)N1CCN(Cc2ccccc2)CC1 | 18 | x | x | -4 | -0.1
CCCCn1c(N)c(N(CC(C)C)C(=O)C2=NN(c3cc(C)ccc3C)C(=O)CC2)c(=O)[nH]c1=O | x | x | x | -10 | 0.5
O=C(CCN1C(=O)c2ccccc2S1(=O)=O)NCc1ccccc1 | x | x | x | 5 | -1.2
CCOc1nc2cnccc2n(CC(=O)Nc2ccc(C)c(C)c2)c1=O | x | x | x | -4 | -4.3
O=c1nc(N/N=C/c2c[nH]c3ccccc23)cn[nH]1 | x | x | 4% | 49 | x
Cc1ccc(NC(=O)c2noc(C(C)C)c2[N+](=O)[O-])cc1 | -1 | x | -2% | -3 | 1.1
Cc1ccccc1C(=O)c1cn[nH]c1-c1ccccc1O | x | x | x | -7 | 1.6

Additional results follow:
SMILES | Arbovirus anti | YopH PTP inh | Mtb growth | Mtb betalactam | RecA intein inh | others
O=C(O)CCCn1c(=O)[nH]c2ccccc2c1=O | 9 | -20 | -8% | 1 | 1.5
Cc1ccc(S(=O)(=O)Oc2ccc(C3C4=C(CCCC4=O)N(CCC(=O)O)C4=C3C(=O)CCC4)cc2Cl)cc1 | 13 | -46 | 4% | 0 | i
Cc1cccc(/C=N/NC(=O)c2cc(C)nc3ccccc23)n1 | x | x | x | u | 3.7
COc1ccc(Cc2nc(C(=O)Nc3ccccc3)cs2)cc1 | 6 | -12 | x | -3 | 11
O=P(/C(=N/O)Sc1ccccc1)(N1CCOCC1)N1CCOCC1 | -7 | -18 | -19% | -10 | 0.3 | Arbovirus anti repeat=-1
COc1ccc(OC)c(C2=NOC(C(=O)N3CCC4(CC3)OCCO4)C2)c1 (stereo not given) | 1 | -6 | -3% | u | 0.2
Cc1ccc(NC(=O)C2Cc3ccccc3CN2C(=O)c2ccco2)cc1S(=O)(=O)N(C)C (stereo not given) | x | x | x | -4 | 2.5
Cn1c(SCC(=O)C(C)(C)C)nnc1-c1ccc(F)cc1 | 4 | x | -4% | 0 | -1.2
COc1ccc(OC)c(C2=NS(=O)(=O)N(C)C(C(=O)Nc3ccc(F)cc3F)=C2)c1 | x | x | x | 1 | 1.2
COc1ccc(C(=O)NC2(C(F)(F)F)NC(=O)N(CCCc3ccccc3)C2=O)cc1OC (stereo not given) | 7 | -30 | 3% | -3 | -4.0
CCN(CC)C(=O)CSc1nnc([C@H](CCSC)NC(=O)OC(C)(C)C)o1 | -2 | -24 | 4% | 0 | 0.4
O=C(CSc1nnc(Cc2cccs2)n1-c1ccc(Cl)cc1)NCc1ccc2c(c1)OCO2 | -11 | -22 | -8% | -5 | 6.3
Cc1c(Cc2ccccc2)c(=O)oc2cc(OC(=O)c3ccccc3)ccc12 | 1 | -40 | 3% | -8 | -0.7
COc1ccc(CNC(=O)c2ccc(Cn3nc(C)cc3C)o2)cc1 | x | x | x | -3 | 1.4
COc1ccc(C(=O)N2CCn3c(C)ccc3C2C)cc1 (stereo not given) | 2 | x | 1% | 3 | 0.3
COCCN1C(=O)/C(=C/c2ccc(Oc3ccc([N+](=O)[O-])cn3)c(OC)c2)SC1=Nc1ccccc1 | 32* | -21 | -1% | 10 | -5.2
CC(C)(C)N1[C@@H](CC(=O)O)c2cc(C(F)(F)F)ccc2S1(=O)=O | x | x | -4% | -13 | -1.0
Cc1nn(CC(=O)NCCc2cccs2)c(=O)c2cc3ccccc3n12 | x | x | x | -3 | -0.5
Cc1ccc(/C=C2/NC(=O)N(Cc3ccc(Br)cc3)C2=O)o1 | -1 | -18 | 0% | -2 | -1.7
O=C(CN1CCCC1)NCC1(c2ccccc2)CCOCC1 | 8 | -1 | -13% | -6 | -1.4
Cc1ccc(S(=O)(=O)N2CCC(C(=O)OCC(=O)N(C)Cc3ccccc3)CC2)cc1C | x | x | x | 1 | 5.6
COc1ccc(-c2cc3nc(C)n(N)c(=O)c3s2)cc1 | x | x | 0% | -11 | -4.9
CC(NC(=O)C(=O)NCCN1CCN(C(=O)c2ccc([N+](=O)[O-])cc2)CC1)c1ccccc1 (stereo not given) | x | x | x | 9 | -1.0
CC(C)c1nnc(NC(=O)c2cccc(-n3cnnn3)c2)s1 | 8 | -11 | 8% | 4 | -1.1
CCCCNC(=O)CCn1nc(-c2ccc(Cl)cc2)ccc1=O | x | x | x | -6 | -3.1
COc1ccc(C(=O)N2CCN(CCNC(=O)C(=O)Nc3ccc(Br)cc3)CC2)cc1 | x | x | x | -4 | 0.8
Cc1c(Cl)cccc1NC(=O)Cn1c(CCC(=O)O)ccc1-c1ccccc1 | x | x | x | -5 | 2.2
